Compound activity from PubChem BioAssay.
TSHR agonist = qHTS Assay for Agonists of the Thyroid Stimulating Hormone Receptor. AID 926, 2007. Potency, µM (highest dose often 57.1 µM), for inactives: top-dose activation, most hits filed as activators. Thyrotropin receptor (Homo sapiens), P16473. 73,000 tested, 0.48% active. HEK293-CNG-TSHR cells (CNG channel as cAMP sensor), membrane potential dye, cAMP; active = well fitted activation curve of enough size with the parental cells flat; inconclusive = any curve in the parental cells; inactive = parental cells flat and receptor cells flat or falling; also: potency is read from the fitted curve at half-maximal effect; % of control where 0% means no effect; weak receptor curves with flat parental cells got no call and are not listed
Target sequence (P16473 whole entry, looked up): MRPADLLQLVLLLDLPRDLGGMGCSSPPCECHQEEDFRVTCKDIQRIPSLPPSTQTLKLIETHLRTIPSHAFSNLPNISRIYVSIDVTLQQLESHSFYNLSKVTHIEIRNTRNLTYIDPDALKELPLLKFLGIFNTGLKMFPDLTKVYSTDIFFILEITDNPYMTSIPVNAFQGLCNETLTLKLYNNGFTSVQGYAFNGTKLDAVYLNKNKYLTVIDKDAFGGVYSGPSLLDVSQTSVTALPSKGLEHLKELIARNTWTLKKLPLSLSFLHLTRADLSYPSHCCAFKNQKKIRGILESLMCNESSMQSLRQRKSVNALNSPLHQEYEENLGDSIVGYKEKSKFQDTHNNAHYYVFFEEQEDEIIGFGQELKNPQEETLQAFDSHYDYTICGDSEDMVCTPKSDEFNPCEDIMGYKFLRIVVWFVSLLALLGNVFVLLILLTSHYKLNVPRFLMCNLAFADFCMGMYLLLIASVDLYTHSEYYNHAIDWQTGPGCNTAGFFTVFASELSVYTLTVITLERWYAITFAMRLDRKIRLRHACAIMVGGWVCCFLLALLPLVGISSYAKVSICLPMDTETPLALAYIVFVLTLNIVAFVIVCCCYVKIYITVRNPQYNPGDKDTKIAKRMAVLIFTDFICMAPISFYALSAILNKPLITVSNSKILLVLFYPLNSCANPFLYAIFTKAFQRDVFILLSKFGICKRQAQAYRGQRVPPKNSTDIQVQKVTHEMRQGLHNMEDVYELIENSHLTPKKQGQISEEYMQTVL
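HEK 293 cells stably expressing TSHR and a modified CNG channel, with CNG-only parental cells as counterscreen, were preloaded 60 min at room temperature with membrane potential dye containing 100 uM RO 20-1724. Compound exposure was 30 min, and depolarization was read as fluorescence at 590 nm.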
Resorufin autofl = qHTS Assay for Spectroscopic Profiling in Resorufin Spectral Region | Compound fluorescence, resorufin region 547/598 nm, buffer; active compounds read high | max dye-equivalent concentration, M | 59,000 tested, 0.04% active; active = above 10 nM dye equivalent; inconclusive = 1 to 10 nM; inactive = 1 nM or less; a few of its hits are not listed in these tables; also: highest value over a series up to 38 µM
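Compounds in 100 mM Tris, pH 8.0, incubated 15 min at room temperature, then fluorescence read at 547 nm excitation/598 nm emission. Signal converted to dye-equivalent concentration via an on-plate six-point resorufin standard curve, per compound concentration.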
AID923 = qHTS Assay for Allosteric/Competitive Inhibitors of Caspase-1: Spectroscopic Profiling in AFC Spectral Region; 75,000 tested, 1.1% active; compound fluorescence, AFC spectral region (405/520 nm); almost no hit is shown here; Potency, µM (series often up to 57.5 µM), inactives show at the top dose fluorescence increase, hits mostly activators; active = well fitted activation curve with a large enough effect; inconclusive = small, poorly fitted or top-dose-only effect;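 also: potency is read from the fitted curve at half-maximal effect; 0% is about no effect; scaled to a free AFC standard on each plate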
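Titrations up to 57 uM read every 20 sec for 3 min (405/520 nm) with 50 nM caspase 1 and 5 uM Ac-WEHD-AFC, pH 7.5 HEPES buffer. Fluorescence-vs-time intercept gave baseline, scaled against on-plate AFC standard.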
A488 fluor = qHTS Assay for Spectroscopic Profiling in A488 Spectral Region. compound autofluorescence, A488 spectral region, dye equivalency; active compounds read high. max dye equivalency, M. 59,000 tested, 0.1% active. AID 591, 2007; active = above 10 nM dye equivalent; inconclusive = 1 to 10 nM; inactive = 1 nM or less; about half of its hits are not listed in these tables;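 also: highest value over a series up to 38 µM; compound alone in buffer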
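Compound autofluorescence was read in 100 mM Tris pH 8.0 after 15 min at room temperature, ex 480 nm/em 540 nm. Intensities were converted to A488 dye-equivalent concentration using an on-plate six-point A488 standard curve.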
A647 fluor = qHTS Assay for Spectroscopic Profiling in A647 Spectral Region; max dye-equivalent concentration, M; Compound fluorescence, A647 channel (570/671 nm), Tris buffer; 59,000 tested, under 10 active; active means above 1 µM dye equivalent; inconclusive means 0.1 to 1 µM; inactive means 0.1 µM or less;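 also: values scaled relative to a standard on each plate; highest value over a series up to 38 µM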
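Fluorescence read (570 nm ex, 671 nm em) after 15 min RT incubation of compounds in 100 mM Tris buffer, pH 8.0; values expressed as dye-equivalent concentration against a six-point A647 standard series on each plate.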
Active calls of the source: *; [ ] = dose if it differs, or a comment.

For COC(=O)c1ccc(C2C(C(=O)Nc3ccccc3C)=C(C)Nc3ncnn32)cc1 (configuration not stated) the results were TSHR agonist 5.4%, Resorufin autofl inactive, AID923 -1.2%, A488 fluor inactive and A647 fluor 1e-09.
Cc1noc(/C=C/N(C)C)c1S(=O)(=O)N1CCCC(C(=O)NCc2ccccc2Cl)C1 (configuration not stated) was read as TSHR agonist 4.7%, Resorufin autofl inactive, AID923 10.3%, A488 fluor inactive and A647 fluor 3.13e-08.
`O=C(O)CCCC(=O)N1CCc2cc(S(=O)(=O)N3CCc4ccccc43)ccc21` gave TSHR agonist -1.2% and AID923 -0.1%.
For O/N=C1/CCCCC1c1ccccn1 (configuration not stated) the results were TSHR agonist -10.4%, Resorufin autofl inactive, AID923 -0.1%, A488 fluor inactive and A647 fluor 4.8e-09.
`COc1ccc2[nH]cc(CCNc3nc(-c4ccccc4OC)nc4ccccc34)c2c1` gave TSHR agonist -19.2%, Resorufin autofl inactive, AID923 0.1%, A488 fluor inactive and A647 fluor 1e-09.
CC(C)Cc1cc(C(=O)NCc2ccco2)no1 was read as TSHR agonist 17.7% and AID923 -0.8%.
COCCNC(=O)CN(C)S(=O)(=O)c1ccc2c(c1)OCCO2 was read as TSHR agonist 0.4%, Resorufin autofl inactive, AID923 -1.9%, A488 fluor inactive and A647 fluor 1.2e-09.
O=c1c2ccccc2ncn1-c1ccc2c(c1)OCCO2 was read as TSHR agonist 5.8% and AID923 0.5%.
Screening Cc1ccccc1-c1ccc(C=Nc2c(C)n(C)n(-c3ccccc3)c2=O)o1 returned Resorufin autofl inactive, AID923 0.2%, A488 fluor inactive and A647 fluor 3.41e-08.
Cc1csc(C(C#N)C(=O)c2ccncc2)n1 (configuration not stated) was read as TSHR agonist 17.0%, Resorufin autofl inactive, AID923 0.0%, A488 fluor inactive and A647 fluor 3.54e-08.
For CC(=O)Nc1ccc(S(=O)(=O)Nc2nccc(C3Cc4ccccc4C(=O)O3)n2)cc1 (configuration not stated) the results were TSHR agonist -2.4%, Resorufin autofl inactive, AID923 3.2%, A488 fluor inactive and A647 fluor 1e-09.
For CSc1nc(N)nc(SC2C=CCCC2)c1C#N (configuration not stated) the results were TSHR agonist inconclusive, Resorufin autofl inactive, AID923 -2.5%, A488 fluor inactive and A647 fluor 6.2e-09.
For O=C(OCc1cc2ccccc2[nH]c1=O)c1ccco1 the results were TSHR agonist 7.4%, Resorufin autofl inactive, AID923 -0.5%, A488 fluor inactive and A647 fluor 1e-09.
`CCn1c2ccc(CC(=O)O)cc2c2cc(CC(=O)O)ccc21` gave TSHR agonist inconclusive, Resorufin autofl inactive, AID923 -0.5%, A488 fluor inactive and A647 fluor 4.1e-09.
Screening O=C(c1ccccc1)n1nc(-c2ccccc2)nc1NCc1ccco1 returned TSHR agonist 25.1µM* and AID923 -0.3%.
For O=C(CN1CCCCC1)Nc1ccc(S(=O)(=O)NC2CCCCC2)cc1 the results were TSHR agonist 20.4%, Resorufin autofl inactive, AID923 -0.8%, A488 fluor inactive and A647 fluor 8.9e-09.
`Cc1ccc(S(=O)(=O)n2nc(-c3ccco3)nc2SCc2ccccc2)cc1` gave TSHR agonist 26.4%, Resorufin autofl inactive, AID923 0.4%, A488 fluor inactive and A647 fluor 1e-09.
CCn1cc(C(=O)N2CCc3ccccc32)c(=O)c2cc(S(=O)(=O)N3CCOCC3)ccc21 was read as TSHR agonist -3.0%, Resorufin autofl inactive, AID923 1.6%, A488 fluor inactive and A647 fluor 2.87e-08.
`CCN(CCCNC(=O)C1CCN(S(=O)(=O)N2CCC3(CC2)OCCO3)CC1)c1ccccc1` gave TSHR agonist -5.8%, Resorufin autofl inactive, AID923 -0.7%, A488 fluor inactive and A647 fluor 9.5e-09.
`Cc1cc2nnc(SCc3ccccc3)n2c(N)n1` gave TSHR agonist 0.1%[11.4 µM], Resorufin autofl inactive, AID923 0.2%, A488 fluor inactive and A647 fluor 1.3e-09.

Molecules shown so far with a furan ring, fused or not (5):
CC(C)Cc1cc(C(=O)NCc2ccco2)no1 was read as TSHR agonist 17.7% and AID923 -0.8%.
Screening Cc1ccccc1-c1ccc(C=Nc2c(C)n(C)n(-c3ccccc3)c2=O)o1 returned Resorufin autofl inactive, AID923 0.2%, A488 fluor inactive and A647 fluor 3.41e-08.
For O=C(OCc1cc2ccccc2[nH]c1=O)c1ccco1 the results were TSHR agonist 7.4%, Resorufin autofl inactive, AID923 -0.5%, A488 fluor inactive and A647 fluor 1e-09.
Screening O=C(c1ccccc1)n1nc(-c2ccccc2)nc1NCc1ccco1 returned TSHR agonist 25.1µM* and AID923 -0.3%.
`Cc1ccc(S(=O)(=O)n2nc(-c3ccco3)nc2SCc2ccccc2)cc1` gave TSHR agonist 26.4%, Resorufin autofl inactive, AID923 0.4%, A488 fluor inactive and A647 fluor 1e-09.

Other records:
For COc1ccc(CN2C(=O)c3cccnc3C2Nc2cc(Cl)ccc2OC)cc1 (configuration not stated) the results were TSHR agonist -11.9%, Resorufin autofl inactive, AID923 -1.3%, A488 fluor inactive and A647 fluor 3.7e-09.
COC(=O)c1cc(Br)c(=O)n(Cc2ccc(C(=O)O)cc2)c1 was read as TSHR agonist 1.8%, Resorufin autofl inactive, AID923 -0.5%, A488 fluor inactive and A647 fluor 1e-09.
For Cc1noc(C)c1C(=O)N1CCN(c2ncccn2)CC1 the results were TSHR agonist 1.1%, Resorufin autofl inactive, AID923 -1.4%, A488 fluor inactive and A647 fluor 1.9e-09.
CC(=O)N1CCc2cc(S(=O)(=O)CCC(=O)Nc3ccc4c(c3)OCCO4)ccc21 was read as TSHR agonist -0.9%, Resorufin autofl inactive, AID923 0.6%, A488 fluor inactive and A647 fluor 1e-09.
Cc1cc(OCCN2CCCCC2)nc2ccccc12 was read as Resorufin autofl inactive, A488 fluor inactive and A647 fluor 2.76e-08.
Screening CC(C)c1nc(SCC(=O)NCc2ccccc2)n[nH]1 returned TSHR agonist 2.2%, Resorufin autofl inactive, AID923 -3.3%, A488 fluor inactive and A647 fluor 1.43e-08.
CCn1cc(C(=O)N2CCOCC2)c(=O)c2cc(S(=O)(=O)N(C)C3CCCCC3)ccc21 was read as TSHR agonist 12.4% and AID923 -2.6%.
For O=C(CN1C(=O)c2ccccc2C1=O)Nc1cccnc1 the results were TSHR agonist 2.0%, Resorufin autofl inactive, AID923 -0.8%, A488 fluor inactive and A647 fluor 2e-08.
Cc1oc(-c2cccc(Cl)c2)[n+]([O-])c1C was read as TSHR agonist -1.1%, Resorufin autofl inactive, AID923 0.1%, A488 fluor inactive and A647 fluor 1e-09.
Cc1ccc(CCNC(=O)C2CCC(=O)N2C(C)C)cc1 (configuration not stated) was read as TSHR agonist inconclusive, Resorufin autofl inactive, AID923 0.5%, A488 fluor inactive and A647 fluor 2.7e-09.
`CCn1c(C(C)NC(=O)c2ccc(OC)c(OC)c2)nc2ccccc21` (configuration not stated) gave TSHR agonist 0.2%[11.4 µM], Resorufin autofl inactive, AID923 0.1%, A488 fluor inactive and A647 fluor 1e-09.
Screening CCSc1nc2c(c(=O)[nH]1)C(c1cccnc1)C(C(=O)OC(C)C)=C(C)N2 (configuration not stated) returned TSHR agonist -0.3%, Resorufin autofl inactive, AID923 0.2%, A488 fluor inactive and A647 fluor 2.88e-08.
Screening Cc1ccc(OCCCC(=O)Nc2ccc(N3CCOCC3)cc2)c(C)c1 returned TSHR agonist 12.2%, Resorufin autofl inactive, AID923 -2.2%, A488 fluor inactive and A647 fluor 8.38e-08.
For CN(C)CCCN1C(=O)C(=O)/C(=C(/O)c2ccc3c(c2)OCO3)C1c1ccccn1 (configuration not stated) the results were TSHR agonist 0.6%, Resorufin autofl inactive, AID923 -1.1%, A488 fluor inactive and A647 fluor 2.5e-09.
`CCOC(=O)c1[nH]c(C)c(/C(C)=N\O)c1C` gave TSHR agonist -9.6% and AID923 0.3%.
For COC(=O)CC1C(=O)NCCN1C(=O)Nc1ccccc1 (configuration not stated) the results were TSHR agonist 3.3%, Resorufin autofl inactive, AID923 0.3%, A488 fluor inactive and A647 fluor 2.65e-08.
`COC(=O)c1ccc(NC(=O)N2CCOCC2)cc1` gave TSHR agonist -4.9%, Resorufin autofl inactive, AID923 0.4%, A488 fluor inactive and A647 fluor 1e-09.
Screening CC1CCCN(C/C(O)=C(\C#N)c2nc3ccccc3[nH]2)C1 (configuration not stated) returned TSHR agonist -2.3%, Resorufin autofl inactive, AID923 0.4%, A488 fluor inactive and A647 fluor 2.14e-08.
For Cc1nn(Cc2ccccc2Cl)c(C)c1NC(=O)c1cc(-c2ccc(F)cc2)on1 the results were TSHR agonist 2.8%, Resorufin autofl inactive, AID923 -0.6%, A488 fluor inactive and A647 fluor 2.74e-08.
Screening CCOC(=O)C1=C(C)NC(C)=C(C(=O)OCC)C1C(=O)OC1CCOC1=O (configuration not stated) returned TSHR agonist 10.7%, Resorufin autofl inactive, AID923 5.1%, A488 fluor inactive and A647 fluor 1e-09.
Screening Cn1c(=O)c2c(nc(CN3CCC(C(N)=O)CC3)n2Cc2ccccc2F)n(C)c1=O returned TSHR agonist -1.5%, Resorufin autofl inactive, AID923 -1.0%, A488 fluor inactive and A647 fluor 1e-09.
Screening CCOC(=O)c1c(C)oc2cc(Br)c(O)c(Br)c12 returned TSHR agonist 25.1µM* and AID923 -5.0%.
`COc1ccc2[nH]cc(C(=O)CN3CCC(C)CC3)c2c1` gave TSHR agonist 7.1%, Resorufin autofl inactive, AID923 0.0%, A488 fluor inactive and A647 fluor 1.7e-09.
`Cc1cc(C#N)c2ccccc2n1` gave TSHR agonist 7.1%, Resorufin autofl inactive, AID923 1.7%, A488 fluor inactive and A647 fluor 4.02e-08.
C/C(CCN1CCc2nc(-c3ccccc3)c(-c3ccccc3)cc2C1)=N\O[C@@H](C)c1cn([C@@H]2COC[C@@H]2O)nn1 was read as TSHR agonist 6.5%[11.4 µM] and AID923 -0.1%[11.5 µM].
COc1ccc(OC)c(CN2C(=O)CCC2(C)C(=O)NC2CCCCCC2)c1 (configuration not stated) was read as TSHR agonist 6.8%, Resorufin autofl inactive, AID923 3.7%, A488 fluor inactive and A647 fluor 2.99e-08.
COc1ccc(Cl)cc1NC(=O)C1CCCN(c2cc(C)nc3ncnn23)C1 (configuration not stated) was read as TSHR agonist inconclusive, Resorufin autofl inactive, AID923 -0.4%, A488 fluor inactive and A647 fluor 2.68e-08.
COC(=O)c1cccc(NC(=O)CSc2nnc(COc3cccc(C)c3)n2C)c1 was read as TSHR agonist 8.2%, Resorufin autofl inactive, AID923 -2.7%, A488 fluor inactive and A647 fluor 1e-09.
Screening CN1CCN(c2nc(-c3ccccc3C(F)(F)F)nc3ccccc23)CC1 returned TSHR agonist 23.8%, Resorufin autofl inactive, AID923 3.4%, A488 fluor inactive and A647 fluor 1e-09.
CCOC(=O)c1sc(C)c2c1NC(C)(c1cccs1)NC2=O (configuration not stated) was read as TSHR agonist inconclusive, Resorufin autofl inactive, AID923 1.0%, A488 fluor inactive and A647 fluor 3.88e-08.
`N#CC1=C(N)OC2=C(C(=O)CCC2)C1c1ccccc1` (configuration not stated) gave TSHR agonist 0.2%[11.4 µM] and AID923 -2.1%.

These rows are one share of the data (hit frequency here may not be typical).
